H5N1 antiviral = antiviral screen in MDCK cells, H5N1 avian flu; inhibition, % at 50 µM; AID 740; cytopathic effect, luminescence, 72 h; active compounds read high; no value below 0 was filed and about half of the inactive calls have no number; reference of the scale not given here; 96,000 tested, 0.07% active; in the data active = inhibition above about 25%
An asterisk follows results filed as active; i = inactive. The list is partial (hit frequency here may not be typical).

SMILES	H5N1 antiviral
CCCCCCC1C(C#N)=C(N)OC2=C1C(=O)CC(C)(C)C2 (configuration not stated)	0.3
Cn1c(NC(=O)c2ccccc2)c(-c2cccs2)c(=O)c2ccccc21	0.9
Nc1ccc2oc(CCc3ccccc3)nc2c1	i
CC(NC(=O)C1CCC(CNc2c(N3CCOCC3)c(=O)c2=O)CC1)c1ccccc1 (configuration not stated)	0.7
Fc1ccccc1N1CCN(C(c2ccccn2)c2nnnn2C2CCCCC2)CC1 (configuration not stated)	5.4
CC(C)(C)c1ccc(-c2n[nH]c(=S)n2C2CCCC2)cc1	i
COC(=O)C(C)N(C(=O)c1cccc(Cl)c1)c1c(C)cccc1C (configuration not stated)	2.4
C/C(=C\C(=O)c1ccc(Br)cc1)NCc1ccccc1	i
Cc1cc(SC(C)C(=O)Nc2c(C)n(C)n(-c3ccccc3)c2=O)nc2ccccc12 (configuration not stated)	i
CC(C)CC(=O)Nc1cc(NC(=O)CC(C)C)cc(C(=O)NC(C)(C)C)c1	i
Cn1cccc1Cc1nnc(SCC(=O)NC2CCCCC2)n1CCc1ccccc1	i
CCC(C)(C)n1nnnc1C(c1ccc(C)cc1)N1CCC(C)CC1 (configuration not stated)	2.0
O=C(Cn1nc(Cc2ccncc2)c2ccccc2c1=O)N1CCN(C(=O)c2ccco2)CC1	1.4
O=C(CCNS(=O)(=O)c1cccc2nsnc12)N1CCN(c2ccccn2)CC1	i
Cc1ccc(C)c(-n2c(CNc3ccc(F)cc3)nnc2SCC(N)=O)c1	i
COc1ccc(C2C(C(C)=O)=C(C)N=c3s/c(=C\c4ccco4)c(=O)n32)c(OC)c1 (configuration not stated)	1.0
CC(C)(CO)NS(=O)(=O)c1ccc2c(c1)oc(=O)c1cc(S(=O)(=O)NC(C)(C)CO)ccc12	1.2
CC(C)(O)C#Cc1ccc(C(=O)N2CCC(C(N)=O)(N3CCCCC3)CC2)cc1	i
COc1ccccc1N(CC(=O)NCCc1ccccc1)S(C)(=O)=O	1.1
Cc1ccc(NC(=O)C2CCCN(S(=O)(=O)c3cnc[nH]3)C2)cc1F (configuration not stated)	1.0
O=C(NCCCN1CCOCC1)C1CC(=O)N(CCc2ccccc2)C1 (configuration not stated)	0.6
Cc1c(-c2nc(N)nc(Nc3ccc(F)cc3)n2)oc2ccccc12	0.4
Cc1ccc(OCc2nc(-c3ccccn3)no2)c(Br)c1	i
O=C(COC(=O)c1n[nH]c(=O)c2ccccc12)c1ccccc1	2.1
C=CCN1C(=NC(=O)CCC(=O)O)SC2CS(=O)(=O)CC21 (configuration not stated)	0.1
CCC(C)(C)n1nnnc1C(c1ccc(O)c(OC)c1)N1CCN(c2nc3ccccc3s2)CC1 (configuration not stated)	i
Cc1ccc(CNC(=O)Nc2cccs2)cc1	0.4
Cn1cccc1C(=O)NC(=O)CSc1nc2ccccc2s1	i
Cc1ccc(Sc2nnc(Cc3ccccc3)c3ccccc23)cc1	8.7
O=C(NCCCN1CCOCC1)C(C(=O)c1ccccc1)n1ccccc1=O (configuration not stated)	1.2
O=C(COC(=O)Cc1cn2ccsc2n1)NCc1ccc2c(c1)OCO2	i
COc1cc(CN2C(=O)NC(=O)C3(Cc4cc(C)ccc4N(C)C3)C2=O)cc(OC)c1 (configuration not stated)	0.8
CCCCN1C(=O)Cc2c1nc(N)c1c(N)nc(N(CCC)CCC)c(C#N)c21	i
O=C(NCCCn1ccnc1)c1noc2c1CCCC2	0.1
CN1CCN(c2ccccc2NC(=O)Cc2cn(C)c3ccccc23)CC1	1.7
CC(C)OC(=O)c1nnc(-c2ccccc2)nc1OC(C)C	2.4
Cn1cnnc1Sc1cc(N2CCN(S(=O)(=O)c3ccc(Cl)c(Cl)c3)CC2)ccc1[N+](=O)[O-]	5.3
Cc1cc2c(=O)n(C)c(SCC(=O)c3cc4ccccc4o3)nc2s1	0.3
Cc1cccc(NC2=C(Cl)C(=O)OC2NC(=O)c2ccccc2)c1 (configuration not stated)	i
CCS(=O)(=O)N1Cc2ccccc2CC1C(=O)Nc1nc2ccccc2[nH]1 (configuration not stated)	i
COc1ccccc1-n1nc(C(=O)Nc2ccc3c(c2)OCO3)c2ccccc2c1=O	i
Cn1c(C(=O)OC(C(=O)NC2CCCC2)c2ccncc2)cc2sccc21 (configuration not stated)	0.5
O=C(Nc1ccc2nn(-c3ccccc3)nc2c1)c1ccc(Br)o1	i
CCC1(C)C2(C#N)C(N)=NC(OC)(OC)C12C#N (configuration not stated)	0.1
O=C(CSc1ccsc1[N+](=O)[O-])NCCc1ccc(Cl)cc1	0.8
CN(C)Cc1nc2ccccc2c(=O)n1Cc1nc(C(C)(C)C)cs1	1.4
Cc1cccc(Sc2c([N+](=O)[O-])ncn2C)n1	3.2
Cc1ccc(C(=O)Nc2ccc3c(c2)OCO3)cc1	i
Nc1ccccc1SCc1cn2cccnc2n1	3.9
CCCCCn1c(SCC(=O)OC)nc2c1c(=O)[nH]c(=O)n2C	2.8

Next results follow:
SMILES	H5N1 antiviral
O=C(Nc1ccccc1N1CCCCC1)c1cccs1	1.9
COCc1nnc(NC(=O)CCc2ccccc2)s1	i
O=C(c1cc2nc(-c3ccco3)cc(C(F)(F)F)n2n1)N1CCN(Cc2ccccc2)CC1	i
CCOC(=O)CSc1nc(-c2ccc(OC)cc2)ns1	i
CC(O)CN(Cc1ccc(Cl)cc1)CC(C)O (configuration not stated)	0.9
Cc1cc(C)c2ccc(NN)nc2c1O	i
CCc1cc(C(=O)OC)c(NC(=O)c2cc(Br)cs2)s1	i
CCOC(=O)C1(O)CSc2nc3sc(C(=O)O)c(C)c3c(=O)n21 (configuration not stated)	1.0
O=C(Nc1nnc(-c2ccccc2SCc2ccccc2F)s1)Nc1ccccc1F	i
COc1c(C(=O)N2CCCC2)ccc2ccccc12	i

An excerpt from above in order of length of the SMILES, lowest first:
SMILES	H5N1 antiviral
COc1c(C(=O)N2CCCC2)ccc2ccccc12	i
CCOC(=O)CSc1nc(-c2ccc(OC)cc2)ns1	i
CCOC(=O)C1(O)CSc2nc3sc(C(=O)O)c(C)c3c(=O)n21 (configuration not stated)	1.0

The list goes on.
SMILES	H5N1 antiviral
Cc1ccc(N2CCN(/N=C/c3cccs3)CC2)cc1	1.4
O=C(CCCNS(=O)(=O)c1cccc2nsnc12)NC1CCCCC1	i
COCc1cc(C)nc(Nc2ccccc2C)c1C#N	i
CCn1c(=N)n(CCO)c2ccccc21	1.0
CCCC(=O)N(c1ccc2oc(=O)sc2c1)S(=O)(=O)c1ccccc1	7.0
O=C(NCc1ccc2c(c1)OCO2)C1CCCN(S(=O)(=O)c2cccnc2)C1 (configuration not stated)	0.3
C/C(N)=C(/C#N)C(=O)CSc1ccc2c(c1)OCCO2	i
Cc1ccc(C(=O)N/C(=C\c2cccs2)C(=O)N2CCCCCC2)cc1	0.1
Cc1cccc(C)c1OCCCCCNCCO	i
COc1ccc(C2C(Oc3ccccc3C)C(=O)N2Cc2ccc(F)cc2)cc1OC (configuration not stated)	1.7
CC(C)CCNC(=O)CC1Nc2c3ccccc3nc(=S)n2C1=O (configuration not stated)	0.3
O=C(NC(=S)N(CCCCO)C1CCCCC1)c1sc2ccccc2c1Cl	1.9
COc1ccc2nc3sc(C(=O)N4CCN(C)CC4)cc3cc2c1	2.2
CCOc1ccccc1Nc1ncccc1C(=O)O	i
CC(O)c1ccc2c(c1)OCCOCCN(C)CCOCCO2 (configuration not stated)	i
CCCS(=O)(=O)N1CCCC(C(=O)NC(C)c2ccc3c(c2)OCCO3)C1 (configuration not stated)	0.2
Cc1ccc(NC(=O)c2sc3ccccc3c2Cl)nc1	i
CN(c1ccccc1)S(=O)(=O)c1ccc(C(=O)OCC(=O)N2CCOCC2)cc1	0.4
O=C(NCc1ccc2c(c1)OCO2)c1ccc(CS(=O)(=O)c2ccc(Br)cc2)o1	2.8
O=C1N(Cc2ccc3c(c2)OCO3)c2ccccc2C1(O)c1c[nH]c2ccccc12 (configuration not stated)	i

Part of the list above in order of length of the SMILES, highest first:
SMILES	H5N1 antiviral
CC(C)(CO)NS(=O)(=O)c1ccc2c(c1)oc(=O)c1cc(S(=O)(=O)NC(C)(C)CO)ccc12	1.2
O=C(c1cc2nc(-c3ccco3)cc(C(F)(F)F)n2n1)N1CCN(Cc2ccccc2)CC1	i
COc1cc(CN2C(=O)NC(=O)C3(Cc4cc(C)ccc4N(C)C3)C2=O)cc(OC)c1 (configuration not stated)	0.8
CC(C)(O)C#Cc1ccc(C(=O)N2CCC(C(N)=O)(N3CCCCC3)CC2)cc1	i
CN(c1ccccc1)S(=O)(=O)c1ccc(C(=O)OCC(=O)N2CCOCC2)cc1	0.4
COc1ccccc1-n1nc(C(=O)Nc2ccc3c(c2)OCO3)c2ccccc2c1=O	i
CCCCN1C(=O)Cc2c1nc(N)c1c(N)nc(N(CCC)CCC)c(C#N)c21	i
COc1ccc(C2C(Oc3ccccc3C)C(=O)N2Cc2ccc(F)cc2)cc1OC (configuration not stated)	1.7
CCS(=O)(=O)N1Cc2ccccc2CC1C(=O)Nc1nc2ccccc2[nH]1 (configuration not stated)	i
Cn1c(NC(=O)c2ccccc2)c(-c2cccs2)c(=O)c2ccccc21	0.9
CCOC(=O)C1(O)CSc2nc3sc(C(=O)O)c(C)c3c(=O)n21 (configuration not stated)	1.0
O=C(NC(=S)N(CCCCO)C1CCCCC1)c1sc2ccccc2c1Cl	1.9
C=CCN1C(=NC(=O)CCC(=O)O)SC2CS(=O)(=O)CC21 (configuration not stated)	0.1
Cc1ccc(Sc2nnc(Cc3ccccc3)c3ccccc23)cc1	8.7
CC(C)OC(=O)c1nnc(-c2ccccc2)nc1OC(C)C	2.4
Cn1cccc1C(=O)NC(=O)CSc1nc2ccccc2s1	i
Cc1ccc(C(=O)Nc2ccc3c(c2)OCO3)cc1	i
COc1c(C(=O)N2CCCC2)ccc2ccccc12	i
O=C(NCCCn1ccnc1)c1noc2c1CCCC2	0.1
Cc1ccc(CNC(=O)Nc2cccs2)cc1	0.4
Cc1cccc(C)c1OCCCCCNCCO	i

Continued:
SMILES	H5N1 antiviral
CCCNS(=O)(=O)c1ccc(CCC(=O)N2CCOCC2)cc1	0.5
Cc1cccc(NC(=S)N/C(=N/S(=O)(=O)c2ccccc2)c2ccccc2)c1	i
CCOC(=O)N1CCC(N(CCCOC)C(=O)Nc2ccc(CC)cc2)CC1	0.2
Cc1ccc(CNC(=O)c2oc3ccc(S(=O)(=O)N4CCC5(CC4)OCCO5)cc3c2C)cc1	0.8
Cc1c(CN2CCCCC2C)c(=O)n(-c2ccccc2)n1C (configuration not stated)	i
CCn1c(C)c(C(C)=O)c(N2CCN(c3ccccc3)CC2)nc1=S	i
O=C(O)CCCCCN1C(=O)CSC1=S	0.3
CN(C)/C=C(/C(=O)c1ccc(Cl)cc1Cl)S(=O)(=O)c1ccccc1	0.1
O=C(Nc1ccccc1)OC(CN1CCCCC1)C(F)(F)F (configuration not stated)	i
O=C(NCc1ccccc1)C1CC2CCCC(C1)C2=O (configuration not stated)	i
CCCC(CCC(=O)NC1CCCCC1)C(=O)O (configuration not stated)	1.0
O=C(CCc1nc(-c2ccccc2)c(-c2ccccc2)o1)OCc1ccc(Br)cc1	i
Cc1ccc(C(=O)Nc2nccs2)cc1S(=O)(=O)N1CCCCC1	0.7
O=C(NCCCCc1ccccc1)C1CC(c2cccc([N+](=O)[O-])c2)=NO1 (configuration not stated)	0.9
O=C(Nc1cccc(C(F)(F)F)c1)c1n[nH]c(Cn2cncn2)n1	1.2
Cc1cc(C)nc(N(C#N)Cc2ccc(Br)cc2)n1	i
O=C(Nc1cc(C(F)(F)F)ccc1Cl)c1cc2nc3c(c(C(F)(F)F)n2n1)CCCC3	0.8
Cc1cc(=O)[nH]c(SCC2COC3(CCCCC3)O2)n1 (configuration not stated)	0.4
CCOC(=O)Nc1ccc(S(=O)(=O)Nn2cnnc2)cc1	0.7
COC(=O)C1C(=O)NCC1c1ccccc1 (configuration not stated)	0.8
O=C(NC(=O)N1CCN(c2ccc(F)cc2)CC1)c1ccccc1	i
COc1cc(S(=O)(=O)N(C)C)ccc1Br	0.2
O=C1CSC(c2nn(-c3ccccc3)cc2-c2cc3ccccc3oc2=O)N1Cc1ccco1 (configuration not stated)	2.8
CN(CCCC(=O)NCc1ccco1)S(=O)(=O)c1ccccc1	0.7
CCOc1cc(C(=S)N2CCCCC2)ccc1OCC(=O)NCc1ccccc1	i
CCN(CC)C(=O)CSc1nnc(-c2ccccc2)n1N	i
CCc1ccc(CNC(=O)C2CC(=O)N(CCc3ccc(C)cc3)C2)cc1 (configuration not stated)	0.6
CCOC(=O)c1c(NC(=O)CN2CCCCC2)sc2c1CCN(C(=O)OCC)C2	i
CCOC(=O)c1cnn(-c2ccccc2)c1NC(=O)C(F)(F)C(F)(F)C(F)(F)F	i
CCOc1ccc(C(c2c(C)[nH][nH]c2=O)c2c(C)[nH][nH]c2=O)cc1OC	0.5
O=C1C2CCCN2C(c2ccc(Cl)cc2)N1c1nccs1 (configuration not stated)	0.0
CSc1cc(C)n(-c2ccccc2)c(=S)c1C(C)=O	i
CCn1cc(C(C)NC(=O)COc2ccc(Cl)cc2C)c(C)n1 (configuration not stated)	i
Cc1ccccc1C(=O)NN(C)c1nc2ccccc2nc1C(F)(F)F	i
Cc1ccccc1OCc1nc2ccc(S(=O)(=O)N3CCOCC3)cc2[nH]1	i
Cn1sc(NC(=O)c2ccccc2)nc1=O	2.5
CCCCNC(=S)Nc1ccccc1F	i
O=C(NCc1ccco1)Nc1ccc(Br)cc1Cl	4.3
O=S1(=O)C=CC(Nc2cccc(Cl)c2)C1 (configuration not stated)	14
CC(c1cccs1)N(C(=O)Nc1ccccc1)C1CCCCC1 (configuration not stated)	1.8
CC1(C)Cc2c(sc(NC(=O)c3ccco3)c2C(=O)O)CO1	0.3
CN(C)CCCNc1oc(-c2ccc(Cl)cc2)nc1C#N	2.5
COc1ccc(NC(=O)c2ccccc2NC(=O)c2ccco2)c(OC)c1	i
O=C(O)C1CC=CCC1C(=O)NC12CC3CC(CC(C3)C1)C2 (configuration not stated)	0.8
CN1C(=O)c2cccc(N(C)C)c2C1=O	0.1
COc1cc(S(=O)(=O)Nc2c(C)cc(C)cc2C)ccc1Cl	0.4
O=C(Cn1cc2c(n1)CCCC2)NCCCN1CCN(C2CCCCC2)CC1	i
Cc1ccccc1OCC(=O)OC1CCN(C)CC1	i
O=C(CSc1nnc(-c2ccccn2)n1-c1ccc(Cl)cc1)Nc1ccc2c(c1)OCO2	i
COC(=O)c1ccc(C2C(C#N)=C(N)Oc3cc(C)n(C)c(=O)c32)cc1 (configuration not stated)	i
